Source: PubChem BioAssay (National Center for Advancing Translational Sciences (NCATS))
AmpC inh no det = Promiscuous and Specific Inhibitors of AmpC Beta-Lactamase (assay without detergent) | P00811 | AmpC nitrocefin hydrolysis, absorbance 480 nm, no detergent; potencies from a single point are estimates | Potency, µM (doses to about 28.7 µM), for inactives: top-dose activity change, negative = inhibition | 71,000 tested, 1.8% active | AID 585, 2007; active = falling curve, for most hits resting on a single point; inconclusive = weak or doubtful change; inactive = flat or rising curve; also: % of control where 0% means no effect; about half of the hits show no inhibition at the top dose; a quarter of the inactives give rising signals
Target sequence (P00811 whole entry, looked up): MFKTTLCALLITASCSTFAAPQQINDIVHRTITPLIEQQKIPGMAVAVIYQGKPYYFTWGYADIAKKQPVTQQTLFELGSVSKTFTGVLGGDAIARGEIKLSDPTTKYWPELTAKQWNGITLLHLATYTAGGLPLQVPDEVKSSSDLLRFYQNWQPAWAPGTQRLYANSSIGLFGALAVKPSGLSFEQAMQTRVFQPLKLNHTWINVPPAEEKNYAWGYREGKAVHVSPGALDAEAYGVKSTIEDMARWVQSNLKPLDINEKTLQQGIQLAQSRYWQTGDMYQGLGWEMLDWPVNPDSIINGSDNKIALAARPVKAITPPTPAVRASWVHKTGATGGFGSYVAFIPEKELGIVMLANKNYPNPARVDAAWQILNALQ
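AmpC, 20 mM phosphate pH 7.0; 15 min cpd preinc, RT; start with nitrocefin (800 uM stock); A480 kinetic read, 20 s intervals, 4 min. No-enzyme wells = negative control.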
Starred values were filed as active, the others as inactive; u = inconclusive; [ ] = remark or other dose. Potency is read from the fitted curve at half-maximal effect. An excerpt, so the mix of outcomes need not match the whole.

A first look (two entries):
SMILES	AmpC inh no det
CCCN1C(=O)c2ccc(C(=O)Nc3cc(C)on3)cc2C1=O	13.5%
NC(N)=NCc1cccc(I)c1	-6.5%

All compounds of this part, repeating the preview:
SMILES	AmpC inh no det
CCCN1C(=O)c2ccc(C(=O)Nc3cc(C)on3)cc2C1=O	13.5%
NC(N)=NCc1cccc(I)c1	-6.5%
CCc1ccccc1N=C1SCC(=O)N1C	9.8%
COc1ccc(S(=O)(=O)NCc2ccc3c(c2)OCO3)cc1C(=O)O	-17.0%
COC(=O)c1cc2sc(Cl)cc2n1CC(=O)N1CCCc2ccccc21	8.5%
CC(C)c1ccc(NC(=O)c2cnn(-c3ccccc3)c2NC(=O)c2ccco2)cc1	19.8%
CCc1ccc2nc(NC3=NCN(CCOC)CN3)nc(C)c2c1	17.6%
c1ccc2c(c1)CCCC2C1=NCCN1 (stereo not drawn)	-8.6%
COc1cccc(NC=C2C(=O)OC(C)(C)OC2=O)c1	37.5%
CCCn1c(C)nc2c(c1=O)c1nc3ccccc3nc1n2CCc1ccccc1	74.1%
CCN(CCNC(=O)C1CCN(S(C)(=O)=O)CC1)c1ccccc1	4.7%
CSc1[nH]c(=O)c(C(=O)O)cc1C#N	11.1%
O=C1C2C3C=CC(C3)C2C(=O)N1CCN1CCN(S(=O)(=O)c2ccc3ccccc3c2)CC1 (stereo not drawn)	113.4%
CCC1S/C(=C(\C#N)C(=O)NCc2ccco2)N(c2ccc(Br)cc2)C1=O (stereo not drawn)	2.2%
CCOC(=O)N1CCC(NC(=O)c2sc(-n3cccc3)nc2C)CC1	20.2%
S=C(NC1CCCCC1)NC1CCCCC1	-16.5%
COc1cc(CNc2ccc3[nH]c(=O)[nH]c3c2)ccc1OCC(=O)NC(C)(C)C	7.1%
CC1=C(C(=O)NCCN2CCN(C)CC2)C2(CCC(C)CC2)OC1=O (stereo not drawn)	-2.0%
O=C(NCc1cccs1)c1ccc(Cl)s1	8.2%
CCOc1ccc(N2C(=O)c3ccccc3C2O)cc1 (stereo not drawn)	7.5%
CCCn1nnc(NC(=O)c2cc3ccccc3o2)n1	-8.8%
Cc1ccc(S(=O)(=O)Cc2ccc(C(=O)N3CCCCCC3)o2)cc1	49.1%
CCOC(=O)c1[nH]c2ccc(F)cc2c1NC(=O)C(C)N1CCc2cc(OC)c(OC)cc2C1 (stereo not drawn)	91.1%
COc1ccc(C)cc1S(=O)(=O)N(C)CC(=O)Nc1ccc2c(c1)OCO2	4.5%
Cc1ccc(C(=O)CSc2nc3ccccc3c(=O)n2N)o1	-8.5%
CCCCN(CC)CCNc1c(N2CCN(C(=O)OCC)CC2)c(=O)c1=O	-5.9%
c1ccc(Nc2n[nH]nc2-c2ccccc2)cc1	-11.9%
COc1ccccc1Nc1nc(N)nc(CN2CCN(c3ccccc3F)CC2)n1	81.4%
COC(=O)[C@@]1(Cc2ccc(F)cc2)[C@H]2c3cc(C(=O)N(C)C)n(CCCNc4ccc(C(F)(F)F)cc4Cl)c3C[C@H]2CN1C(=O)c1ccccc1	125.6%
O=C(Nc1ccccc1)c1ccc(S(=O)(=O)N(CCO)CCO)cc1	-0.6%

An excerpt of these results, with bars between the fields:
SMILES | AmpC inh no det
COc1ccc(C)cc1S(=O)(=O)N(C)CC(=O)Nc1ccc2c(c1)OCO2 | 4.5%
CC1=C(C(=O)NCCN2CCN(C)CC2)C2(CCC(C)CC2)OC1=O (stereo not drawn) | -2.0%
c1ccc(Nc2n[nH]nc2-c2ccccc2)cc1 | -11.9%
COc1cc(CNc2ccc3[nH]c(=O)[nH]c3c2)ccc1OCC(=O)NC(C)(C)C | 7.1%

Later entries
SMILES	AmpC inh no det
O=C(CSc1nnnn1C1CCCC1)Nc1cccc(NC(=O)c2ccco2)c1	-14.6%
CCOc1ccc(N(CC(=O)Nc2ccc(C)c(C)c2)S(=O)(=O)c2c(C)noc2C)cc1	-5.0%
CCCCCc1nnc(NC(=O)OCCC)s1	-2.9%
COc1cc(OC)cc(C(=O)N2CCC(n3c(C)nc4cc(F)ccc43)CC2)c1	116.5%
CC(=O)Nc1ccc(S(=O)(=O)Nc2cc(C)c(-n3nc4ccccc4n3)cc2O)cc1	24.7%
Cc1nnc(SCC(=O)Nc2sccc2C(N)=O)n1Cc1ccccc1	-7.0%
COCCn1c(Sc2nc(C)cs2)nc2c1c(=O)[nH]c(=O)n2C	-3.8%
Cc1cccc(C)c1NC(=O)CCCSc1nnnn1C	-0.5%
CN(C)c1ccccc1CN1CCCN(Cc2ccccc2N(C)C)C1c1ccncc1	10.2%[5.75 µM]
COc1cc(NC(=O)C2CCN(S(=O)(=O)c3cccc4nonc34)CC2)cc(OC)c1	-4.6%
CCOc1ccc(N(CC(=O)N2CC=C(c3ccccc3)CC2)S(=O)(=O)c2c(C)noc2C)cc1	3.98µM*[single pt active]
Cc1ccc(S(=O)(=O)NCCN(CCNS(=O)(=O)c2ccc(C)cc2)S(C)(=O)=O)cc1	43.3%
COc1ccccc1NC(=O)C1=C(C)NC(SCC(=O)c2ccccc2)=C(C#N)C1c1ccco1 (stereo not drawn)	u
Cc1cc(=O)n(C)c(=O)n1CCCNc1ccccc1	0.7%
CCN(CC)S(=O)(=O)c1ccc(C(=O)NCCc2cc3c(OC)ccc(OC)c3[nH]c2=O)cc1	146.8%
c1ccc2c(c1)NC1(CCCCC1)n1c-2nc2ccccc21	-10.0%
O=C(NCCC1=CCCCC1)C1CCCN(S(=O)(=O)c2ccccc2)C1 (stereo not drawn)	29.4%
CC(C)C(NC(=O)CC12CC3CC(CC(C3)C1)C2)C(=O)O (stereo not drawn)	-8.2%
CC1CCN(S(=O)(=O)c2ccc(NC(=O)c3cccs3)cc2)CC1	-10.6%
O=C(CSc1nnc2scc(-c3ccccc3)n12)NCc1ccco1	3.3%
Cc1ccc(Cn2nnc(C(=O)Nc3cccc(C)c3C)c2N)cc1	2.3%
O=C(OCCN1CCCCC1)c1ccccc1Cl	1.0%
O=C(Cn1cnc2ccccc2c1=O)NCCC(=O)N1CCN(Cc2ccccc2)CC1	41.5%
CCCCOC(=O)C1=C(C)Nc2nnnn2C1c1ccc(OC)c(OC)c1OC (stereo not drawn)	34.7%
O=C1NC(=O)N(C2CCCCC2)C(=O)C1C1c2ccccc2C(=O)N1Cc1ccccc1 (stereo not drawn)	6.2%
Cn1cc(S(=O)(=O)N2CCN(c3cccc(C(F)(F)F)c3)CC2)c(=O)n(C)c1=O	126.6%
CN(C)c1ncc2nc(-c3ccccc3)c(=O)n(C[C@H]3CCCO3)c2n1	-0.5%
CSCCC(NC(=O)c1ccccc1)C(=O)NCc1ccco1 (stereo not drawn)	0.5%
C#C[C@]1(O)CC[C@@H]2[C@H]3CCC4=CCCC[C@@H]4[C@@H]3CC[C@@]21C	46.1%[12.8 µM]
Nc1ccc(S(=O)(=O)Nc2ccccn2)cc1	-4.3%[12.8 µM]

Reformatted: results already given
| compound | AmpC inh no det |
| --- | --- |
| Nc1ccc(S(=O)(=O)Nc2ccccn2)cc1 | -4.3%[12.8 µM] |
| C#C[C@]1(O)CC[C@@H]2[C@H]3CCC4=CCCC[C@@H]4[C@@H]3CC[C@@]21C | 46.1%[12.8 µM] |
| CSCCC(NC(=O)c1ccccc1)C(=O)NCc1ccco1 (stereo not drawn) | 0.5% |

More compounds follow:
SMILES	AmpC inh no det
CC(C)n1c(NCc2cccs2)nc2ccccc21	-8.4%
COc1ccc(N2CCN(C(=O)c3ccc4nc(N5CCCCC5)sc4c3)CC2)cc1	28.3%
O=C(Nc1nc(-c2cccs2)cs1)c1cccc(S(=O)(=O)N2CCCCCC2)c1	-21.7%
COc1ccc(Br)c(C(=O)Nn2c(C)nc3ccccc3c2=O)c1	-5.4%
CCCc1[nH]nc2c1C(c1ccccc1OC)C(C#N)=C(N)O2 (stereo not drawn)	-14.3%
c1ccn2c(c1)nc1c2nc2ccccn21	-3.5%
Cc1nc2nc[nH]n2c(=O)c1NS(C)(=O)=O	-4.3%
Cc1cccc(C2=NCC(=O)N(CC(=O)NCc3ccco3)c3sc4c(c32)CCCC4)c1	78.9%
CCOC(=O)c1c(C)n(COCCO)c2ccc(O)cc12	7.6%
O=C(COc1ccc(S(=O)(=O)N2CCCCC2)cc1)N1CCCCCC1	21.1%
Cc1ccc(-c2nnn(CC(=O)NCCc3ccc4c(c3)OCO4)n2)o1	-3.2%
Cc1cccn2c(N)c(-c3ccccc3)nc12	20.5%
O=S(=O)(Nc1ccc(-c2nc3cccnc3s2)cc1)c1cccs1	-4.5%
CCOC(=O)C(NC(=O)c1ccc(OC)cc1)(Nc1cc(C)on1)C(F)(F)F (stereo not drawn)	6.4%
CCCCNc1cc(=O)n(C)c(=O)[nH]1	3.98µM*[single pt active]
Cc1ccc2cc(CN(CC3CCCO3)S(=O)(=O)c3c(C)ccc4nsnc34)c(=O)[nH]c2c1 (stereo not drawn)	113.9%
COc1ccc(Br)cc1S(=O)(=O)N1CC(C)OC(C)C1 (stereo not drawn)	34.1%
CN1CCN(c2ncc3nc(-c4ccc(Cl)cc4)c(=O)n(CCC#N)c3n2)CC1	111.9%
COc1ccccc1NC(=O)Nc1ccnn1C1CCCCC1	-23.2%
CC(=O)c1c(C)nc2ccccn12	-4.8%
CC1CCC(N2CCN(S(C)(=O)=O)CC2)CC1 (stereo not drawn)	-8.0%
O=C(O)Cc1ccc([N+](=O)[O-])cc1[N+](=O)[O-]	1.1%[5.75 µM]
O=S(=O)(Nc1nccs1)c1ccc2c(c1)OCCO2	-13.7%
Cc1c(C(=O)O)[nH]c2c1C(=O)CC(c1ccc(Cl)cc1)C2 (stereo not drawn)	-8.1%
CN(CC(=O)Nc1ccc(F)c(Cl)c1)S(=O)(=O)c1cccc2nsnc12	-16.1%
COc1ccc(-c2noc(CCC(=O)NCCCN3CCC(C)CC3)n2)cc1	17.4%
COCCCN1C(=O)C(=O)/C(=C(/O)c2ccc(OCC(C)C)cc2C)C1c1cccnc1 (stereo not drawn)	-2.5%
Cc1onc(-c2ccccc2)c1C(=O)NCC1CCCO1 (stereo not drawn)	-5.9%
N#Cc1cc2c(=O)n3ccccc3nc2n(CCN2CCOCC2)c1=O	-7.7%
CCCOc1ccc(C2C(C(=O)OC)=C(C)N=C3SCCC(=O)N32)cc1OCC (stereo not drawn)	104.0%
CCOc1cc(NC(=O)c2ccco2)c(OCC)cc1NC(=O)CCc1ccc(OC)cc1	19.0%
CCOC(=O)c1cnc(SCC(=O)N2CCc3ccccc32)nc1N	0.8%
CCCN(CCC)CCSc1nc(O)c(C(C)C)c(=O)[nH]1	-4.7%
COCCCN1CC23C=CC(O2)C(C(=O)O)C3C1=O (stereo not drawn)	2.6%
CCCn1cnc2c(cnn2-c2ccc(F)cc2)c1=O	4.6%
COCCn1c(=O)c(-c2cc(F)cc(F)c2)nc2cnc(Oc3ccccc3)nc21	25.6%
Cc1c(C(=O)NCCN2CCOCC2)sc2nc(-c3ccc(F)cc3)cn12	113.5%
O=C(COc1ccc(OCc2ccccc2)cc1)NC1CCOC1=O (stereo not drawn)	8.2%
COc1ccc(C2N3CC4(C)CN2CC(C)(C3)C4O)cc1 (stereo not drawn)	-3.4%
O=C(NCc1ccccc1)c1noc2c1CCCCC2	0.2%
COc1ccc(-c2nc(C#N)c(N3CCCCCC3)o2)cc1OC	97.3%
Cc1ccc(NC(=O)CS(=O)CC(=O)N(c2ccccc2)C(C)C(=O)NC2CCCC2)cc1 (stereo not drawn)	76.9%
CC1(C)[C@@H]2CC[C@]1(C)[C@@H](OC(=O)/C=C\c1ccccc1)C2	-14.3%[5.75 µM]
Cc1nnc(C)n1/N=C/c1ccc(C(C)C)cc1	47.9%
CCCc1nc2oc3c(N4CCNCC4)ncnc3c2c2c1CCCC2	31.7%
O[C@H]([C@H](O)[C@@H](O)c1nc2ccccc2[nH]1)[C@@H](O)c1nc2ccccc2[nH]1	-0.1%[5.75 µM]
Cc1ccc(NC2=CC(=O)CCC2)cc1C	4.7%
COc1ccccc1NC(=O)CC1C(=O)Nc2c1c(=O)n(C)c(=O)n2C (stereo not drawn)	-2.3%
O=C(Cc1ccccc1)N1CCN(Cc2c[nH]c3ccccc23)CC1	55.2%
CCOC(=O)C1=C(CS(=O)(=O)c2ccccc2)NC(=O)NC1c1ccccc1 (stereo not drawn)	0.7%
c1ccc([C@H](CCN2CCCC2)c2ccccn2)cc1	-1.1%[5.75 µM]
COc1ccc(CNc2ncncc2-c2ccccc2C(F)(F)F)c(OC)c1	50.3%
Cc1cc(C(=O)O)c(S(C)(=O)=O)s1	-7.4%
CC(C)n1nnnc1CN1CCN(C)CC1	-0.4%
CC(C)(C)c1ccc(OCC(=O)NCc2ccco2)cc1	24.6%
N#Cc1ccc(CN2CCCC3(CCNCC3)C2)cc1	3.5%
COc1ccc(-n2c(=O)cnc3cnc(Oc4cccc(Cl)c4)nc32)cc1	54.5%
CC(C)(C)OC(=O)N1CCCC1C(=O)NCCc1ccccc1 (stereo not drawn)	5.6%
CC(C)C[C@@H](CC(=O)N[C@@H](CCCN)CC(=O)N[C@@H]1CCNC[C@H]1C(=O)N[C@H](CC(=O)N[C@@H](CCC(=O)O)CC(=O)O)CC(C)C)NC(=O)[C@@H]1CNCC[C@H]1N	32.0%
Cc1noc(/C=C/N(C)C)c1S(=O)(=O)N(C)CC(=O)N1CCc2ccccc21	70.7%

(more compounds)
SMILES	AmpC inh no det
COc1ccccc1-c1cc(C(=O)NC(C)C)no1	9.3%
CCOc1ccc(NC(=O)c2cc3n(n2)C(C(F)(F)F)CC(c2ccco2)N3)cc1 (stereo not drawn)	49.5%
COc1ccc(C(=O)N2CCN(c3nc4ccccc4o3)CC2)cc1OC	95.7%
CCCc1nnc(NC(=O)c2cc(OC)cc(OC)c2)s1	15.7%
Cn1c(=O)c2c(nc(CN3CCCCC3)n2Cc2c(F)cccc2Cl)n(C)c1=O	-6.3%
CCOC(=O)c1ccc(N2CN=C3SCC(=O)N3C2)cc1	5.3%
COc1ccc(C=O)cc1	5.7%
